Screening data: PubChem BioAssay, several laboratories
WNV NS2B-NS3 inh = WNV NS2B-NS3 proteinase inhibition. actives 0.18% (n = 65,000). P06935. z-score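 (tested at a level between 10 and 100 µM)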. WNV NS2B-NS3 protease, fluorogenic substrate Ex360/Em465; hits give low values;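 active = z-score at -3 or under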;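 also: score is relative to mean and spread of the compound wells of a plate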
Target sequence (P06935 1371-1501 limits assumed): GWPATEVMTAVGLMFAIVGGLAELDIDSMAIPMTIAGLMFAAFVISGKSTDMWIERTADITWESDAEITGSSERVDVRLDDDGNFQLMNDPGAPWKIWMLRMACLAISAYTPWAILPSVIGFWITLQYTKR
Target sequence (P06935 1502-1679 limits assumed): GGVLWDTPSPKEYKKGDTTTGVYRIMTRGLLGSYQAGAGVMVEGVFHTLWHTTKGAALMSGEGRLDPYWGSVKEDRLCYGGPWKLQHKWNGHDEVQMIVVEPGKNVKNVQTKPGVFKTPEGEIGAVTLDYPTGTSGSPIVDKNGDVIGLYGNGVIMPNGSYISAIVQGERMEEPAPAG
MT1-MMP reporter = inhibitors of MT1-MMP promoter transcription, cell-based, luciferase reporter, luminescence (AID 618). MT1-MMP promoter luciferase reporter cells, luminescence. calls from a first round at 10 µM; hits with a dose series show EC50 in µM. actives 0.62% (n = 87,000);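 active = over half of the reporter light lost at 10 µM or EC50 under 50 µM; inactive = the rest and hits that failed the dose series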;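 also: actives suppress MT1-MMP promoter-driven transcription so potencies describe inhibitors; HT1080 fibrosarcoma cells; overnight exposure; toxic or luciferase-blocking compounds were not removed from the actives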
Hsc70 ATP site = Hsc70 inhibitors, probe displacement, primary screen, biochemical, fluorescence polarization (AID 568); displacement, % at 20 µM; hits with a dose series show IC50 in µM; Hsc70 fluorescence polarization, probe displacement; higher % means a stronger effect; strong numbers were not always called active; 83,000 tested, under 10 active;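 active = displacement above 50% without optical interference and an IC50 on retest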;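 also: ATPase domain with a fluorescein-tagged ATP probe; 0% = vehicle and 100% = excess ADP; read after one hour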
Starred values were filed as active, the others as inactive; i = inactive; . = no result given.

SMILES	WNV NS2B-NS3 inh	MT1-MMP reporter	Hsc70 ATP site
CCOC(=O)CCNC(=O)Nc1ccc2nc(C)n(Cc3ccccc3Cl)c(=O)c2c1	-0.27	i	-6.9%
COc1ccc(NC(=O)N(C2CCCCC2)C2CCN(C(C)C)CC2)c(OC)c1	0.48	i	-3.1%
COCCCN1C(=O)C(O)=C(C(C)=O)C1c1cccc(F)c1 (stereo unspecified)	0.01	i	-2.6%
CN1C(=O)SC(Nc2ccccc2)C1=O (stereo unspecified)	.	i	-1.6%
CCOC(=O)c1cc2occc2n1CC(=O)Nc1ccc(OC)cc1OC	0.64	i	-6.0%
FC(F)(F)c1cc(-c2ccco2)nc(NCc2ccccc2)n1	-0.95	i	-7.3%
COc1cc(C2CC(=O)NC(SCC(=O)Nc3ccccc3C)=C2C#N)ccc1O (stereo unspecified)	-1.1	i	-2.5%
CCN(Cc1cc2cccc(C)c2[nH]c1=O)C(=O)c1ccccc1OC	-1	i	-8.3%
O=C(Nc1cccc(NC(=O)c2cccs2)c1)c1ccco1	0.03	i	5.8%
COC(=O)c1sccc1NC(=O)C12CC3CC(CC(C3)C1)C2	.	i	0.7%
CCn1c(SCC(=O)Nc2ccc(NC(=O)c3ccco3)c(OC)c2)nc2ccccc2c1=O	-0.66	i	-7.1%
O=c1cc(N2CCN(Cc3ccccc3)CC2)[nH]c(=O)n1-c1cccc(C(F)(F)F)c1	-0.62	i	-6.7%
CCOc1ccc(-n2c(SCC(N)=O)nc3c([nH]c4ccccc43)c2=O)cc1	0.54	i	1.0%
COc1ccc2c(c1)CCc1c(C(=O)NCc3cccnc3)noc1-2	-1	i	-8.7%
O=C(CCCN1C(=O)c2ccccc2C1=O)NCc1cccnc1	-0.6	i	1.0%
CCC1Oc2ccccc2N(CC(=O)Nc2ccc3c(c2)OCCO3)C1=O (stereo unspecified)	-0.71	i	2.5%
Fc1ccccc1OCCSc1nc2ccccc2o1	0.71	i	4.8%
CCOC(=O)N1CCC(n2c(SCC(=O)Nc3ccccc3OC)nc3ccccc3c2=O)CC1	1.1	i	-2.4%
COc1cccc(/C=N/Nc2snc(SC)c2C#N)c1	.	i	-1.1%
Cc1noc(C)c1Cn1nc(C(=O)O)c2ccccc2c1=O	-0.11	i	-0.2%
O=C(Cn1cnc2c(nnn2Cc2ccccc2F)c1=O)NCc1ccco1	0.61	i	-1.8%
Cc1cc(C)c2c(N)c(C(=O)NCc3ccco3)sc2n1	-0.53	i	4.2%
Cc1ccc(C)c(S(=O)(=O)Nc2ccc3scnc3c2)c1	0.27	i	-4.4%
CSc1nsc(SCC(=O)N2CCc3ccccc32)n1	-0.55	i	5.0%
CCCCc1nc2n[nH]c(N)c2c2c1CSC(C)(C)C2	.	i	2.7%

Part of the list above in order of number of heavy atoms, falling.
SMILES	WNV NS2B-NS3 inh	MT1-MMP reporter	Hsc70 ATP site
CCOC(=O)N1CCC(n2c(SCC(=O)Nc3ccccc3OC)nc3ccccc3c2=O)CC1	1.1	i	-2.4%
COCCCN1C(=O)C(O)=C(C(C)=O)C1c1cccc(F)c1 (stereo unspecified)	0.01	i	-2.6%
CN1C(=O)SC(Nc2ccccc2)C1=O (stereo unspecified)	.	i	-1.6%

Continuation.
SMILES	WNV NS2B-NS3 inh	MT1-MMP reporter	Hsc70 ATP site
COc1nc2c(C)cccc2cc1-c1noc(-c2ccco2)n1	0.63	i	-31%
COc1ccccc1-n1c(SCC(=O)Nc2cccc3ccccc23)nc(O)cc1=O	.	i	0.7%
COC(=O)CSc1nc2ccc(C)cc2[nH]1	.	i	3.6%
Cc1noc(C)c1S(=O)(=O)Nc1ccc(C(=O)N2CCc3ccccc3C2)cc1	-0.33	i	1.0%
O=C(c1ccccc1)c1nnc(-c2ccccc2F)o1	0.07	i	0.2%
COc1ccc(C(OC(=O)c2c(C)noc2C)C(=O)NC2CCCC2)cc1 (stereo unspecified)	-0.26	i	-0.7%
c1ccc(OCc2nnc3sc(-c4cccs4)nn23)cc1	0.34	i	-7.2%
CC(=O)C(=Nc1ccccc1Cl)NNc1ccc(Cl)cc1	.	i	-1.8%
CC(=O)Nc1ccc(-c2cn3ccsc3n2)cc1	0.02	i	2.7%
O=C(CN1CCCC1)NCC12CC3CC(CC(C3)C1)C2	-1.4	i	-2.0%
CC1CCc2c(C(=O)NCCCN3CCOCC3)csc2C1 (stereo unspecified)	-0.63	i	0.6%
CCN(CC)CC#CC(C)OCOCC#CCOC (stereo unspecified)	0.37	i	-2.5%
CC(=O)NCc1nc2ccccc2n1C(C)C	-0.26	i	2.4%
Cc1nc(N(C)C)ncc1C(=O)O	.	i	5.5%
O=c1[nH]c(-c2ccncc2)nc2ccccc12	-0.23	i	0.1%
COc1ccc(Nc2nc(N)nc(CN(C)C3CCCCC3)n2)cc1	.	i	2.3%
COc1ccccc1NCCC(=O)OCC(=O)Nc1ccc(Cl)cn1	1.1	i	1.0%
CC1=Nc2ccccc2/C1=C\c1nc(-c2ccc(F)cc2)oc1O	.	i	1.9%
CCn1nnc(NC(=O)c2ccc(C(C)(C)C)cc2)n1	-0.14	i	2.2%
O=C(O)C1C2C=CC(O2)C1C(=O)NCCCn1ccnc1 (stereo unspecified)	0.31	i	-1.6%
O=C(O)CCC(=O)Nc1ccc(Cc2ccc(NC(=O)CCC(=O)O)cc2)cc1	.	i	-1.3%
COc1ccc(OC)c(NC(=O)Nc2cccc(Cn3cccn3)c2)c1	-0.96	i	3.6%
CS(=O)(=O)N(CCc1ccccc1)CC(=O)NCc1ccncc1	.	i	0.0%
Cc1ccc(C)c(C(=O)n2cnnc2N)c1	0.82	i	3.8%
C/C(Cl)=C\Cn1c(=O)c2c(nc3n2CCS3)n(C)c1=O	-1.6	i	-1.8%

Compounds above with two or more sulfur atoms:
SMILES	WNV NS2B-NS3 inh	MT1-MMP reporter	Hsc70 ATP site
COc1cccc(/C=N/Nc2snc(SC)c2C#N)c1	.	i	-1.1%
Cc1ccc(C)c(S(=O)(=O)Nc2ccc3scnc3c2)c1	0.27	i	-4.4%
CSc1nsc(SCC(=O)N2CCc3ccccc32)n1	-0.55	i	5.0%
c1ccc(OCc2nnc3sc(-c4cccs4)nn23)cc1	0.34	i	-7.2%

Structural class, those above containing a cyano group
SMILES	WNV NS2B-NS3 inh	MT1-MMP reporter	Hsc70 ATP site
COc1cc(C2CC(=O)NC(SCC(=O)Nc3ccccc3C)=C2C#N)ccc1O (stereo unspecified)	-1.1	i	-2.5%
COc1cccc(/C=N/Nc2snc(SC)c2C#N)c1	.	i	-1.1%

Next section
SMILES	WNV NS2B-NS3 inh	MT1-MMP reporter	Hsc70 ATP site
Cc1ccc(N(Cc2cc3ccccc3[nH]c2=O)C(=O)c2ccco2)c(C)c1	-0.16	i	5.0%
COCCn1c(SCC(=O)c2ccc3c(c2)OCCO3)nnc1-c1ccco1	-0.53	i	-0.1%
O=C(CCC1CCCC1)NCCCN1CCOCC1	0.09	i	3.1%
CN(C)c1ccc(/C=C2\SC(=S)N(Nc3ncc(C(F)(F)F)cc3Cl)C2=O)cc1	.	i	-138%
CN(C(=O)COC(=O)C1CCN(S(=O)(=O)c2cccs2)CC1)C1CCS(=O)(=O)C1 (stereo unspecified)	0.98	i	-0.8%
CS(=O)(=O)N(CCc1ccccc1)CC(=O)NCc1ccc2c(c1)OCO2	-0.17	i	-1.6%
O=C(CSc1nnc(-c2cccs2)n1-c1ccccc1)N1CCOCC1	-0.35	i	0.8%
CCOC(=O)c1cc2c(C(F)(F)F)cc(-c3ccccc3)nc2o1	.	i	1.5%
CC(C)Cn1c(-c2ccc(C#N)cc2)nc2c1c(=O)[nH]c(=O)n2CC(C)C	.	i	-4.2%
OC1(c2cccc(F)c2)CCN(Cc2ccncc2)CC1	0.39	i	-0.8%
Cc1sc2ncn(-n3c(C)ccc3C)c(=O)c2c1C	-1.2	i	4.9%
CCCCNC(=O)c1cn(-c2ccc(OCC)cc2)c(=O)c2cc(OC)c(OC)cc12	.	i	-3.7%
COC(=O)CN(c1ccc2c(c1)OCO2)S(C)(=O)=O	0.4	i	-0.5%
O=C1NC(=O)C2(CCc3ccccc32)N1 (stereo unspecified)	-1.9	i	2.8%
CC(C)CCn1c(NCCN(C)C)nc2c1c(=O)[nH]c(=O)n2C	0.47	i	-2.6%
COc1ccccc1CNC(=O)c1cc2sccc2n1C	-0.86	i	-12%
COC(=O)COc1ccc(S(=O)(=O)N2CCOCC2)cc1C	0.08	i	2.0%
Cc1ccc(S(=O)(=O)Cn2nnnc2C(CC(C)C)N2CCN(c3ccc(F)cc3)CC2)cc1 (stereo unspecified)	1.9	i	6.2%
Cc1ccc2nc(CSc3nnc(Cc4cccs4)n3C3CCCCC3)cc(=O)n2c1	2.4	i	-2.1%
O=C(c1ccc(Cl)c(F)c1F)N1CCCC1	0.16	i	-1.0%
CC(C(=O)Nc1ncc2c(n1)CC(C)(C)CC2=O)N1C(=O)c2ccccc2C1=O (stereo unspecified)	0.16	i	-1.9%
CC(=O)c1cccc(NC(=O)c2nccnc2C(=O)O)c1	-0.41	i	-9.7%
N=c1c2c3c(sc2nc2n1CCCCC2)CCCC3	.	i	0.1%
CN1CCC(=NNC(=O)C(=O)NC2CCCCC2)CC1	.	i	5.7%
CCOc1cccc(-c2nnc(SCC(=O)Nc3cc(C)ccc3OC)n2N)c1	-1	i	-15%

(further entries)
SMILES	WNV NS2B-NS3 inh	MT1-MMP reporter	Hsc70 ATP site
COc1ccc(/C=C2/SC(=O)N(NS(=O)(=O)c3ccccc3)C2=S)cc1OC	.	i	-11%
CCOC(=O)c1cnc(SC2CC(=O)N(c3ccccc3)C2=O)nc1N (stereo unspecified)	.	i	0.8%
O=C(CCNS(=O)(=O)c1cccc2nsnc12)NCCC1=CCCCC1	-1.1	i	5.7%
CCCNc1nc2c(c(=O)n(C)c(=O)n2C)n1CCc1ccccc1	1	i	7.2%
CC(=O)Nc1ccc2nc(C)n(Cc3ccc(Cl)cc3)c(=O)c2c1	.	i	6.1%
O=C(NCc1ccco1)c1ccc2c(c1)C(=O)N(Cc1ccccc1)C2=O	-1.7	i	10%
COc1ccc(C2CC(c3ccc(F)cc3)Nc3nc(N)nn32)cc1 (stereo unspecified)	-0.19	i	-2.2%
CCc1nnc(NC(=O)CN2CCN(c3nc(-c4ccccc4)cs3)CC2)s1	-0.95	i	-7.3%
O=C1C2CC=CCC2C(=O)N1c1ccc(OCC(O)Cn2nnc3ccccc32)cc1 (stereo unspecified)	-0.58	i	3.0%
CCN(c1ccccc1)S(=O)(=O)c1ccc(OC)c(OC)c1	.	i	-1.7%
O=C(O)CCSc1nc2ccc(Br)cc2[nH]1	-0.25	i	2.8%
COc1ccc2[nH]c(=O)c(CN(CCN(C)C)C(=O)NCc3ccccc3)cc2c1	-0.08	i	-9.9%
O=C(CC(Cc1ccccc1)C(=O)O)NCCc1ccc2c(c1)OCO2 (stereo unspecified)	1.3	i	2.2%
Cc1cc(C)n(-c2ccn(Cc3ccc(Cl)cc3Cl)c(=O)n2)n1	1.3	i	5.1%
Cc1ccc(Nc2cc(C)nn2-c2nc(C)cc(C)n2)cc1	-1.8	i	1.8%
Cn1c(SCC(=O)N2CCCCC2)nc2cccnc21	0.35	i	-1.3%
CCC1C(=O)n2nc(-c3ccccc3)cc2N=C1C (stereo unspecified)	0.76	i	2.8%
CCN(CC)Cc1c(O)c(Cl)cc2c(C)c(C)c(=O)oc12	.	i	3.1%
CCCCN1C2CCCC1CC(NC(=O)N(C(C)C)C(C)C)C2 (stereo unspecified)	.	i	2.5%
COc1cc2c(cc1NC(=S)Nc1ccccc1C)oc1ccccc12	.	i	-3.2%
CCCC(C(=O)NCc1ccccc1)N(C(=O)Cn1nnc(-c2cccs2)n1)c1ccc2c(c1)OCCO2 (stereo unspecified)	.	i	-1.2%
O=C1CCCc2c1[nH]c1ccc(CN3CCCCC3)cc21	0.16	i	-3.3%
CCCCc1ccc(NC(=O)c2c(C)noc2C)cc1	-0.78	i	-3.5%
CCOCCCn1c(=N)c(C(=O)NCc2ccc3c(c2)OCO3)cc2c(=O)n3cccc(C)c3nc21	0.29	i	3.7%
CCN1CCN(c2c(Cl)cccc2NC(=O)c2ccc(Br)o2)CC1	2	i	-0.3%

Carrying on.
SMILES	WNV NS2B-NS3 inh	MT1-MMP reporter	Hsc70 ATP site
COc1cc(C)c(C)cc1S(=O)(=O)N1CCN(Cc2ccc3c(c2)OCO3)CC1	0.36	i	4.1%
c1ccc(Cn2nnc3c(N4CCCCCC4)ncnc32)cc1	0.04	i	0.3%
CC(C)c1ccc(Nc2nc(NCc3ccco3)nc(N3CCOCC3)n2)cc1	-1	i	2.1%
COC(=O)c1ccc(-c2cc(C(=O)O)c3cc4c(cc3n2)OCCO4)cc1	2.4	i	-6.9%
Cc1cc(NC(=O)c2cnn3cccnc23)no1	0.37	i	-6.1%
COc1ccc2nc(NC(=O)CN3CCN(C)CC3)sc2c1	-2	i	-1.3%
Cn1nc([N+](=O)[O-])nc1Oc1ccccc1	.	i	5.1%
Cc1ccsc1/C=N/Nc1nc(Cl)c(Cl)cc1Cl	.	i	-2.4%
COc1cc(OC)cc(C(=O)NC(C(=O)NCCN(C)C)C23CC4CC(CC(C4)C2)C3)c1 (stereo unspecified)	-0.45	i	1.5%
Cn1c(=O)c2cn(-c3cccc4ccccc34)cc2n(C)c1=O	-0.95	i	-3.0%
O=c1[nH]c2ccccc2nc1-c1cccs1	1.7	i	-4.3%
COc1ccccc1N1CCN(C(c2ccccc2Cl)c2nnnn2C(C)(C)C)CC1 (stereo unspecified)	0.77	i	-5.3%
Cc1ccc2c(=O)c(CN(C)C3CCN(C)CC3)c(C)[nH]c2c1C	0.04	i	-0.2%

An unsorted share of the library; any-hit rate near 0.77%.
